Screening results: PubChem, Broad Institute
Vaccinia stage – blocks a specific stage of Vaccinia orthopoxvirus infection; actives 0.01% (n = 89,000); Vaccinia-infected cells, mCherry/Venus stage reporter fluorescence; stronger effect = lower value; some inactives read as strong as hits; activity change (mCherry), % (no concentration beside the values); AID 1053133;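 active means mCherry past -33% and 40 or more points under the early reporter, replicates agreeing; inconclusive means past -33% without that gap or agreement; tested in A549 cells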;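 further: scaled between vehicle wells and reference inhibitor wells; 23 nL library stock went into each well; one replicate is shown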
Vaccinia stage Venus – second read-out of Vaccinia stage, no call of its own (marks repeat the call); activity change (Venus), %; measured here: Venus reporter, other viral stage;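 negative = less Venus signal; first of two replicates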
Active calls of the source: *; ? = inconclusive; · = no result given. A portion of the library (hit frequency here may not be typical).

SMILES | Vaccinia stage | Vaccinia stage Venus
C[C@@H]1CN([C@@H](C)CO)C(=O)c2c(c3ccccc3n2C)-c2ccccc2CO[C@H]1CN(C)C(=O)N[C@H](C)c1ccccc1 | ? | ·
O=C(C[C@@H]1C=C[C@H](NC(=O)c2ccccc2)[C@@H](CO)O1)NCc1ccc(Oc2ccccc2)cc1 | 2 | -3
C[C@H](CO)N1C[C@H](C)[C@H](CN(C)C(=O)c2ccc(F)cc2)Oc2ncc(C#C[C@@H](C)O)cc2C1=O | 26 | 6
C[C@H]1CN([C@@H](C)CO)C(=O)c2cccc(NC(=O)Nc3ccc4c(c3)OCO4)c2O[C@@H]1CN(C)Cc1ccc2c(c1)OCO2 | 10 | 14
CC=Cc1ccc2n(c1=O)C[C@@H]1[C@@H](CO)[C@H](C(=O)NC3CCC3)[C@H]2N1C(=O)c1ccccn1 (mixture of isomers) | 4 | 11
O=C(NCc1nc2ccccc2[nH]1)C1=C[C@H](C2CC2)C[C@H](OCc2ccc(CO)cc2)O1 | -13 | -7
OC[C@@H]1CC[C@@H]2O[C@H](CCc3ccc(C#CCc4ccccc4)cc3)[C@H](n3cc(-c4ccccc4)nn3)C[C@@H]2O1 | 25 | 6
CCC(=O)N1CC[C@@H]2[C@H](CO)Nc3ccc(-c4ccc(C(=O)N(C)C)cc4)cc3[C@@H]21 | -22 | -16
COc1ccc(-c2cnc3c(c2)C(=O)N([C@@H](C)CO)C[C@H](C)[C@H](CN(C)Cc2ccccc2)O3)cc1 | 6 | 0
CO[C@@H]1CN(C)C(=O)c2cc(NC(=O)c3cc(C)on3)ccc2OC[C@H](C)N(C(=O)C2CC2)C[C@@H]1C | -3 | -19
CN1CCCCN2[C@H](C1)[C@H](c1ccc(C#Cc3ccccc3F)cc1)[C@@H]2CO | ? | ·
COc1ccc(NC(=O)N(C)C[C@@H]2Oc3ncc(C#CCN(C)C)cc3C(=O)N([C@@H](C)CO)C[C@@H]2C)cc1 | 18 | 13
C[C@@H]1CCCCO[C@@H](CN(C)S(=O)(=O)c2cn(C)cn2)[C@@H](C)CN([C@H](C)CO)C(=O)c2cc(NS(C)(=O)=O)ccc2O1 | 25 | 13
CCCNC(=O)C[C@H]1CC[C@@H]2[C@@H](COc3ccc(NC(=O)NCCC)cc3C(=O)N2C)O1 | -1 | 0
C[C@@H]1CN([C@H](C)CO)C(=O)c2cccc(NC(=O)c3ccncc3)c2O[C@H]1CN(C)C(=O)Nc1ccc(C(F)(F)F)cc1 | 4 | 3
CCC(=O)Nc1ccc2c(c1)OC[C@@H](C)N(C(=O)NC1CCCCC1)C[C@@H](C)[C@H](OC)CN(C)C2=O | 8 | 0
CC(C)CC#Cc1ccc([C@H]2[C@H]3CN(C(=O)Cc4cccnc4)CC(=O)N3[C@H]2CO)cc1 | -32 | -37
CO[C@H]1CN(C)C(=O)c2ccc(NC(C)=O)cc2OC[C@H](C)N(CCc2ccccc2)C[C@H]1C | -6 | -5
C[C@@H]1CN([C@@H](C)CO)C(=O)Cc2cc(NC(=O)NC3CCCCC3)ccc2O[C@@H]1CN(C)S(=O)(=O)c1ccccc1 | -8 | 4
COc1cccc(S(=O)(=O)N2C[C@H](O)COC[C@H]3O[C@H](CC(=O)Nc4ccccc4)CC[C@@H]32)c1 | 1 | -4
COc1cc(CN2CC3(CN(S(=O)(=O)c4cn(C)cn4)C3)c3c(n(C)c4cc(OC)ccc34)[C@H]2CO)cc(OC)c1 | -11 | -15
C[C@H]1CN([C@@H](C)CO)C(=O)CCCn2cc(nn2)CO[C@@H]1CN(C)C(=O)Nc1ccccc1F | 9 | 13
Cn1cnc(S(=O)(=O)N[C@H]2C=C[C@@H](CC(=O)Nc3ccccc3)O[C@H]2CO)c1 | 19 | 8
O=C(Nc1ccc(F)cc1)Nc1ccc2c(c1)[C@@H]1C[C@H](CC(=O)N3CCOCC3)O[C@@H](CO)[C@@H]1O2 | 3 | 4
C[C@@H]1CN([C@H](C)CO)C(=O)c2cc(-c3cccnc3)cnc2O[C@@H]1CN(C)C(=O)Nc1ccc2c(c1)OCO2 | -9 | -1
O=C(NC1CCCC1)[C@H]1N[C@H]2c3ccc(-c4cccc(F)c4)c(=O)n3C[C@H]2[C@@H]1CO | 3 | -1
CO[C@H]1CN(C)C(=O)c2ccc(NC(C)=O)cc2OC[C@H](C)N(C(=O)c2ccccn2)C[C@H]1C | 10 | -6
COc1ccc2c3c(n(C)c2c1)[C@@H](CO)N(CC1CC1)CC31CN(Cc2ccc(F)cc2)C1 | -24 | -15
CCC(=O)N1Cc2cc(C(=O)N3CCCCC3)nc(-c3cccc(-c4cccnc4)c3)c2[C@H]1CCO | -35 | -31
CCC(=O)N1C[C@H]2[C@@H](c3ccccc31)[C@H](CO)N2C(=O)CC1CC1 | 8 | 11

Reformatted: results already given.
| structure | Vaccinia stage | Vaccinia stage Venus |
| --- | --- | --- |
| COc1cc(CN2CC3(CN(S(=O)(=O)c4cn(C)cn4)C3)c3c(n(C)c4cc(OC)ccc34)[C@H]2CO)cc(OC)c1 | -11 | -15 |
| C[C@H]1CN([C@@H](C)CO)C(=O)CCCn2cc(nn2)CO[C@@H]1CN(C)C(=O)Nc1ccccc1F | 9 | 13 |
| Cn1cnc(S(=O)(=O)N[C@H]2C=C[C@@H](CC(=O)Nc3ccccc3)O[C@H]2CO)c1 | 19 | 8 |
| O=C(Nc1ccc(F)cc1)Nc1ccc2c(c1)[C@@H]1C[C@H](CC(=O)N3CCOCC3)O[C@@H](CO)[C@@H]1O2 | 3 | 4 |
| C[C@@H]1CN([C@H](C)CO)C(=O)c2cc(-c3cccnc3)cnc2O[C@@H]1CN(C)C(=O)Nc1ccc2c(c1)OCO2 | -9 | -1 |
| O=C(NC1CCCC1)[C@H]1N[C@H]2c3ccc(-c4cccc(F)c4)c(=O)n3C[C@H]2[C@@H]1CO | 3 | -1 |
| CO[C@H]1CN(C)C(=O)c2ccc(NC(C)=O)cc2OC[C@H](C)N(C(=O)c2ccccn2)C[C@H]1C | 10 | -6 |
| COc1ccc2c3c(n(C)c2c1)[C@@H](CO)N(CC1CC1)CC31CN(Cc2ccc(F)cc2)C1 | -24 | -15 |
| CCC(=O)N1Cc2cc(C(=O)N3CCCCC3)nc(-c3cccc(-c4cccnc4)c3)c2[C@H]1CCO | -35 | -31 |
| CCC(=O)N1C[C@H]2[C@@H](c3ccccc31)[C@H](CO)N2C(=O)CC1CC1 | 8 | 11 |

Further structures.
SMILES | Vaccinia stage | Vaccinia stage Venus
C/C=C/c1ccc([C@H]2[C@@H](CO)N3CCCCN(C(=O)Nc4ccc(F)cc4)C[C@H]23)cc1 | ? | ·
COCCNC(=O)C[C@@H]1C[C@@H]2c3cc(NC(=O)CN(C)C)ccc3O[C@@H]2[C@@H](CO)O1 | -5 | 7
COc1ccc(CN(C)C[C@@H]2Oc3ccc(NC(=O)Nc4ccc(F)cc4)cc3CC(=O)N([C@@H](C)CO)C[C@@H]2C)cc1 | ? | ·
C[C@H](CO)N1C[C@H](C)[C@H](CN(C)Cc2ccccc2)OCCCC[C@H](C)Oc2ccc(NS(=O)(=O)c3cccs3)cc2C1=O | ? | ·
CC=Cc1ccc2n(c1=O)C[C@H]1[C@H](CO)[C@@H](C(=O)OC)[C@@H]2N1C(=O)CC (mixture of isomers) | 7 | 3
O=C(C[C@H]1C=C[C@@H](NC(=O)c2cccc(F)c2)[C@H](CO)O1)Nc1nccs1 | 11 | 4
COc1ccc(NC(=O)N(C)C[C@@H]2Oc3ccc(NC(=O)CCC(F)(F)F)cc3C(=O)N([C@@H](C)CO)C[C@H]2C)cc1 | 15 | -2
CN(C)C(=O)c1ccc(-c2ccc([C@H]3[C@H](CO)N4CCCCN(CC5CC5)C[C@@H]34)cc2)cc1 | 33 | 20
C[C@@H]1CN([C@@H](C)CO)C(=O)c2cc(NC(=O)c3ccncc3)ccc2O[C@H]1CN(C)C(=O)Nc1ccccc1 | 10 | 6
C[C@@H]1CN([C@@H](C)CO)C(=O)c2cc(NC(=O)c3ccccc3)ccc2O[C@@H](C)CCCCO[C@@H]1CN(C)S(=O)(=O)c1ccc(Cl)cc1 | 26 | 10
COCC(=O)N1C[C@@H](C)[C@@H](OC)CN(C)C(=O)c2cc(NC(=O)NC(C)C)ccc2OC[C@H]1C | 15 | 8
CCC(=O)Nc1ccc2c(c1)C(=O)N(C)C[C@H](OC)[C@H](C)CN(C(=O)C1CCC1)[C@H](C)CO2 | -8 | -9
C[C@@H]1CN([C@@H](C)CO)C(=O)c2cc(-c3cccc(C#N)c3)cnc2O[C@H]1CN(C)C | 20 | 11
O=C(Nc1ccc2c(c1)[C@H]1C[C@H](CC(=O)N3CCOCC3)O[C@H](CO)[C@H]1O2)NC1CCCCC1 | 14 | 8
COc1ccc(S(=O)(=O)N[C@H]2CC[C@@H](CCn3cc(C(C)C)nn3)O[C@H]2CO)cc1 | -5 | 3
CCC(=O)N1C[C@H](C)[C@@H](OC)CN(C)C(=O)c2ccc(NC(=O)Nc3ccccc3)cc2OC[C@@H]1C | -5 | 2
CO[C@@H]1CN(C)C(=O)c2cc(NC(=O)Nc3cccc(F)c3)ccc2OC[C@H](C)NC[C@H]1C | -12 | -5
C[C@@H]1CN([C@@H](C)CO)C(=O)c2cc(C#CCN(C)C)cnc2O[C@H]1CN(C)Cc1ccccc1 | 8 | 9
O=C(C[C@@H]1C=C[C@H](NS(=O)(=O)c2ccc(F)cc2)[C@H](CO)O1)NCCN1CCCCC1 | -4 | 1
C[C@@H]1CN([C@H](C)CO)C(=O)c2cc(NC(=O)c3ccncc3)ccc2O[C@@H](C)CCCCO[C@H]1CN(C)Cc1ccc(C(F)(F)F)cc1 | ? | ·
Cc1noc(C)c1S(=O)(=O)N(C)C[C@H]1OCCCC[C@@H](C)Oc2ccc(NS(=O)(=O)c3ccc(Cl)cc3)cc2C(=O)N([C@@H](C)CO)C[C@@H]1C | ? | ·
O=C(C1CCOCC1)N1C[C@@H]2[C@H](c3ccccc31)[C@H](CO)N2C(=O)Nc1cccc(F)c1 | 0 | 4
C[C@@H]1CCCCO[C@H](CN(C)S(=O)(=O)c2ccccc2)[C@@H](C)CN([C@H](C)CO)C(=O)c2cc(NC(=O)NC3CCCCC3)ccc2O1 | 1 | -1
COc1ccc(NC(=O)N(C)C[C@H]2Oc3ccc(NS(=O)(=O)c4cccs4)cc3C(=O)N([C@H](C)CO)C[C@@H]2C)cc1 | 24 | 16
CC=Cc1ccc2n(c1=O)C[C@@H]1[C@@H](CO)[C@H](C(=O)NCCC)[C@H]2N1C(=O)c1ccccc1 (mixture of isomers) | -6 | 0
Cc1ccccc1-c1ccc([C@H]2[C@@H](CO)N3CCCCN(C(=O)Nc4cccc(F)c4)C[C@H]23)cc1 | ? | ·
OC[C@@H]1[C@@H](c2ccc(-c3cccnc3)cc2)[C@@H]2CN(Cc3ccccn3)CCCCN12 | 18 | 3
C[C@@H]1CN([C@@H](C)CO)C(=O)c2cccc(NC(=O)c3ccncc3)c2O[C@@H]1CN(C)C(=O)Nc1ccc(F)cc1 | -4 | -1
Cc1ccc(S(=O)(=O)N(C)C[C@H]2Oc3ccc(NC(=O)CCCN(C)C)cc3C(=O)N([C@@H](C)CO)C[C@@H]2C)cc1 | 6 | 3
CCCC#Cc1ccc([C@H]2[C@H]3CN(Cc4ccncc4)CCCCN3[C@H]2CO)cc1 | -11 | -4
CC(C)C#Cc1cnc2c(c1)C(=O)N([C@H](C)CO)C[C@@H](C)[C@@H](CN(C)C(=O)CC1CC1)O2 | 0 | -7
C[C@@H]1CCCCO[C@H](CN(C)C(=O)Nc2ccc(F)cc2)[C@@H](C)CN([C@@H](C)CO)C(=O)c2cc(NC(=O)CCC(F)(F)F)ccc2O1 | -14 | -10
COc1ccc(S(=O)(=O)N[C@@H]2CC[C@@H](CC(=O)NCCc3ccncc3)O[C@H]2CO)cc1 | 13 | 6
CCNC(=O)[C@@H]1[C@@H](CO)[C@@H]2Cn3c(cccc3=O)[C@H]1N2Cc1cc(F)ccc1F | 16 | 16
OC[C@H]1[C@@H](c2ccc(/C=C/c3ccccc3)cc2)[C@@H]2CN(Cc3ccncc3)CCCCN12 | ? | ·
Cc1ccccc1-c1ccc2c(c1)O[C@@H](CN(C)C(=O)C1CC1)[C@H](C)CN([C@@H](C)CO)S2(=O)=O | -8 | -6
COC(=O)C[C@@H]1C[C@H]2c3cc(NC(=O)Cc4ccncc4)ccc3O[C@H]2[C@H](CO)O1 | 3 | 4
C[C@@H]1CN([C@H](C)CO)C(=O)c2cccc(NS(=O)(=O)c3ccc(Cl)cc3)c2O[C@H]1CN(C)Cc1ccc(-c2ccccc2)cc1 | -26 | -17
CNC[C@@H]1Oc2ncc(C#Cc3cccc(OC)c3)cc2C(=O)N([C@@H](C)CO)C[C@@H]1C | -14 | -11
C[C@@H]1CN([C@@H](C)CO)C(=O)c2cc(C#CC3(O)CCCC3)cnc2O[C@@H]1CN(C)S(=O)(=O)c1ccc(F)cc1 | 2 | 3
CCNC(=O)[C@@H]1[C@@H](CO)[C@@H]2Cn3c(cccc3=O)[C@@H]2N1C(=O)CC1CC1 | 0 | 2
COc1cccc(/C=C/C=O)c1 | 9 | 7
C[C@H](CO)N1C[C@H](C)[C@H](CN(C)C)Oc2cc(C#Cc3cccc(F)c3)ccc2S1(=O)=O | ? | ·
COCC#Cc1cnc2c(c1)C(=O)N([C@@H](C)CO)C[C@@H](C)[C@@H](CN(C)Cc1ccccc1F)O2 | 7 | 6
CNC[C@@H]1Oc2c(NC(=O)C3CCOCC3)cccc2C(=O)N([C@@H](C)CO)C[C@@H]1C | -2 | 2
CC(=O)N[C@H]1C=C[C@H](CC(=O)NCc2ccc(Cl)cc2)O[C@H]1CO | 5 | 10
C[C@@H]1CN([C@H](C)CO)C(=O)Cc2cc(NS(=O)(=O)c3cn(C)cn3)ccc2O[C@@H]1CN(C)S(=O)(=O)c1ccc(Cl)cc1 | 2 | -2
COc1ccc(NC(=O)Nc2ccc3c(c2)CC(=O)N([C@@H](C)CO)C[C@H](C)[C@@H](CN(C)S(=O)(=O)c2ccc(F)cc2)O3)cc1 | 1 | -4
